Mtb betalactam: beta-lactam sensitization of Mtb H37Rv, H37Rv. hit rate 0.27% among 330,000. inhibition, % at 25 µM. AID 434955, 2010. M. tuberculosis H37Rv growth with meropenem, percent inhibition; hits of this screen are not shown here;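 active = about 74% or more and at least 40 points above the plate without the antibiotic, then above 30% in a dose series; inconclusive = first-round hits that could not be retested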;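 also: growth measured after seven days incubation then overnight dye step; 0% = bacteria only wells and 100% = bacteria with antibiotic; twin plates without the antibiotic show which effects depend on it; some results filed as inactive read as strong as hits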
The depositor's hits bear a star; ? = inconclusive. An excerpt, so the mix of outcomes need not match the whole.

SMILES	Mtb betalactam
Cc1ccc(S(=O)(=O)NCCCNS(=O)(=O)c2ccc(C)cc2)cc1	-8
COC(=O)c1c(C)[nH]c(C(=O)CN2C(=O)C3CC=CCC3C2=O)c1C (stereo not drawn)	-6
CCc1nnc(NC(=O)C2CCN(c3ncnc4sc(C)c(C)c34)CC2)s1	2
C[C@H]1CN([C@@H](C)CO)C(=O)Cc2cc(NC(=O)Cc3ccccc3)ccc2O[C@H]1CN(C)C(=O)Nc1cccc2ccccc12	-3
O=C(NC(Cc1cccc(F)c1)C(=O)O)C1CCCCC1 (stereo not drawn)	-5
O=C(CNc1cccc(S(=O)(=O)N2CCCC2)c1)Nc1cccc(C(F)(F)F)c1	7
CCOC(=O)[C@@H]1[C@H]2COc3ccc(Br)cc3[C@H]2N2C(=O)N(c3ccc(C)cc3)C(=O)[C@@]12C	-2
Cc1cc(NC(=O)CN2C(=O)NC(c3ccccc3)(c3ccc(C)c(C)c3)C2=O)no1 (stereo not drawn)	-10
CCNc1nc(NCC)n2c(SCC(=O)Nc3ccccc3OC(F)F)nnc2n1	-1
COc1ccc(/C=C/C(=O)OCC(=O)NCc2ccccc2)cc1OC	1
CSc1nc(N)nc2c1ncn2CC(=O)N[C@H](CO)Cc1c[nH]c2ccccc12	0
COc1cc2c(-c3ccc4cc[nH]c4c3)c(-c3ccsc3)oc(=O)c2cc1OC	98
COc1cc(NCc2ccccc2)c2ncn(Cc3ccccc3)c2c1	5
CN(C(=O)CSc1nc2sc3c(c2c(=O)n1C)CCC3)C1CCS(=O)(=O)C1 (stereo not drawn)	4
CCOc1ccc(CN(C)C(=O)c2ccc(S(=O)(=O)N(C)c3ccccc3OC)cc2)cc1	-4
O=C(COC(=O)c1nc(Cl)ccc1Cl)Nc1ccc(Cl)cc1	-8
O=C(O)CC/C(=C\c1cc2c(cc1Br)OCO2)c1nc2ccccc2s1	3
CCC1C(=O)C(C)(C)C(=O)OC1c1ccc([N+](=O)[O-])cc1 (stereo not drawn)	-1
CC(OC(=O)C1CC1)C(=O)Nc1ncc(Cl)cc1Cl (stereo not drawn)	-1
O=C(COC(=O)c1ccc(Cl)nc1)Nc1cc(S(=O)(=O)N2CCOCC2)ccc1Cl	-3
COC(=O)COc1ccc(/C=C2\SC(=O)N(CC(=O)Nc3ccccc3F)C2=O)cc1	-4
Cn1nc(C(=O)NNC(=O)c2ccc(Cl)c(S(N)(=O)=O)c2)c2ccccc2c1=O	-3
CC(C)NC(=O)[C@]1(C)CCC[C@@]2(C)C3CC[C@@]4(C)C[C@]3(CCC21)CC4=O (stereo partly drawn)	-8
Cc1ccc([C@@H]2CC=C(C(=O)O)[C@H](c3ccccc3F)N2S(=O)(=O)c2ccccc2C)cc1	-1
CSCCC(NS(=O)(=O)c1ccccc1F)C(=O)NCc1cccs1 (stereo not drawn)	5
SMILES	Mtb betalactam
COc1ccc(NC(=O)CSc2ncccn2)cc1S(=O)(=O)N1CCCCC1	2
O=C(CC(CC(=O)c1ccc(Cl)cc1)c1ccccc1C(=O)O)c1ccc(Cl)cc1	-7
COc1cc(C#Cc2c(-c3ccccc3OC)oc3ccccc23)cc(OC)c1	8
Cc1cc(C)n(-c2ccc(C(=O)OCC(=O)Nc3cc(S(C)(=O)=O)ccc3Cl)cc2)n1	6
O=C(COc1ccc([N+](=O)[O-])cc1Cl)N1CCc2ccccc21	1
Cn1c(=O)c2c(ncn2CC(=O)OCC(=O)Nc2ccc(F)cc2F)n(C)c1=O	-1
C[C@@H]1O[C@@H](Oc2c(-c3ccc(O)c(O)c3)oc3cc(O)cc(O)c3c2=O)[C@H](O)[C@H](O)[C@H]1O	5
CCn1cc(CN2CCC(C(=O)Nc3ccc(Oc4cccnc4)cc3)CC2)c(C)n1	?
COc1ccc(NC(=O)COC(=O)C(NC(=O)c2ccc(C)cc2)C(C)C)cn1 (stereo not drawn)	1
Cc1cccc(N2N=C(C(=O)N3Cc4ccccc4CC3C(N)=O)CCC2=O)c1 (stereo not drawn)	0
C[C@H](CO)N1C[C@H](C)[C@@H](CN(C)Cc2ccc(Cl)c(Cl)c2)Oc2c(NS(=O)(=O)c3cn(C)cn3)cccc2C1=O	-1
O=C(C[C@H]1C/C=C\C[C@H](NC(=O)OCC2c3ccccc3-c3ccccc32)C(=O)O[C@H](c2ccccc2)CNC1=O)N[C@H](CO)Cc1ccccc1	-1
Cc1nnc(SCC(=O)c2c(N)n(C3CC3)c(=O)[nH]c2=O)n1-c1ccccc1	-1
C=CC[C@@H](CC(=O)OC(C)(C)C)C(=O)OC[C@H]1CCCN1C(=O)[C@@H](CC=C)CC(=O)N(CCO)Cc1ccccc1	-9
Cc1ccc(S(=O)(=O)N2CCN(C(=O)CSc3ncn[nH]3)CC2)cc1	2
Cc1cccc(CN2CCC(N3CC(C)OC(C)C3)CC2)c1 (stereo not drawn)	-11
CCOc1ccc(OCCC(=O)OCC(=O)NC2CCCC2)cc1	4
CSc1ccc(CN2CCC(N3CC(C)OC(C)C3)CC2)cc1 (stereo not drawn)	-3
O=C(COC(=O)[C@@H]1CC(O)CN1S(=O)(=O)c1ccc(Cl)c(Cl)c1)NC(=O)NCc1ccccc1 (stereo partly drawn)	1
COc1cc(C(O)CO)ccc1OS(=O)(=O)O (stereo not drawn)	0
COc1cc2cncc(Cc3ccc(Cl)cc3)c2cc1OC	60
Cc1c(NC(=O)CSc2nnc(-c3cccnc3)n2N)c(=O)n(-c2ccccc2)n1C	-7
CN(C(=O)COc1ncnc2ccccc12)C1CCCCC1	-5
CC(C)(C)OC(=O)N1CCN(C(=O)c2[nH]cnc2C(=O)Nc2cccc(Cl)c2)CC1	46
Cc1ccc(NC(=O)COC(=O)Cn2ccc(=O)[nH]c2=O)cc1C	6

Gathered by group: the entries above containing a thiophene ring, fused or not.
SMILES	Mtb betalactam
CCc1nnc(NC(=O)C2CCN(c3ncnc4sc(C)c(C)c34)CC2)s1	2
COc1cc2c(-c3ccc4cc[nH]c4c3)c(-c3ccsc3)oc(=O)c2cc1OC	98
CN(C(=O)CSc1nc2sc3c(c2c(=O)n1C)CCC3)C1CCS(=O)(=O)C1 (stereo not drawn)	4
CSCCC(NS(=O)(=O)c1ccccc1F)C(=O)NCc1cccs1 (stereo not drawn)	5

Six entries from above, as comma-separated lines:
Molecule,Mtb betalactam
CSCCC(NS(=O)(=O)c1ccccc1F)C(=O)NCc1cccs1 (stereo not drawn),5
COc1ccc(NC(=O)CSc2ncccn2)cc1S(=O)(=O)N1CCCCC1,2
O=C(CC(CC(=O)c1ccc(Cl)cc1)c1ccccc1C(=O)O)c1ccc(Cl)cc1,-7
COc1cc(C#Cc2c(-c3ccccc3OC)oc3ccccc23)cc(OC)c1,8
Cc1cc(C)n(-c2ccc(C(=O)OCC(=O)Nc3cc(S(C)(=O)=O)ccc3Cl)cc2)n1,6
O=C(COc1ccc([N+](=O)[O-])cc1Cl)N1CCc2ccccc21,1

The listing picks up; the 2 compounds before the break are reprinted first.
SMILES	Mtb betalactam
CC(C)(C)OC(=O)N1CCN(C(=O)c2[nH]cnc2C(=O)Nc2cccc(Cl)c2)CC1	46
Cc1ccc(NC(=O)COC(=O)Cn2ccc(=O)[nH]c2=O)cc1C	6
Cc1noc(C)c1NC(=O)N(C)C[C@H]1Oc2ccc(NS(=O)(=O)c3c(C)noc3C)cc2C(=O)N([C@H](C)CO)C[C@@H]1C	-1
CC1CCCC(C)N1C(=O)COC(=O)c1cccnc1Cl (stereo not drawn)	-2
Cc1ccc(NC(=O)CN(C)C(=O)C(Sc2ccccc2)c2ccccc2)cc1 (stereo not drawn)	-2
Cc1ccc([C@@H]2CC=C(C(=O)O)CN2S(=O)(=O)c2ccccc2C)cc1	-6
CCOC(=O)c1[nH]c(C)c(C(=O)OCC(=O)NC(C)c2ccc(F)cc2)c1C (stereo not drawn)	-5
O=C(Nc1ccc(Cl)cc1)c1nc[nH]c1C(=O)NCc1ccccc1	84
O=C(COC(=O)CCS(=O)(=O)c1ccc(F)cc1)NC1CCCCC1	-1
CC(OC(=O)c1ccccn1)C(=O)Nc1ccc2c(c1)OCCO2 (stereo not drawn)	3
CCOc1ccc(NS(=O)(=O)c2cc(NC(=O)C3CC3)ccc2C)cc1Br	3
Cc1ccc(S(=O)(=O)NC2=NCN(C(C)C)CN2)cc1	-4
N#CCC(=O)Nc1ccc(C(=O)NNC(=O)CCN2CCN(c3ccccc3)CC2)cc1	-7
CCOC(=O)C1=C(C)Nc2ccccc2N/C1=N\S(=O)(=O)c1ccc(Cl)cc1	18
O=S(=O)(c1cccc(Br)c1)N1CCN(S(=O)(=O)c2ccc3c(c2)OCCO3)CC1	8
Cc1cccc(-n2c(SCC(=O)NCC3CCCO3)nc3ccccc3c2=O)c1C (stereo not drawn)	17
O=C(NCCc1ccc(Cl)cc1)C1=CC=CN2CCS(=O)(=O)N=C12	-5
O=C(c1cnn(C(=O)c2ccco2)c1)c1ccccc1O	2
CC(=NNC(=O)COc1cccc(C)c1)c1cccnc1	3
N#CCc1ccc(NC(=O)c2ccc(CN3CCc4ccccc4C3)cc2)cc1	4
COc1cccc(NS(=O)(=O)c2ccc(S(=O)(=O)N3CCCC3)cc2)c1	12
Cc1ccc(OCCOC(=O)c2cccc(S(=O)(=O)N3CC(C)OC(C)C3)c2)cc1 (stereo not drawn)	-18
COc1ccc(S(=O)(=O)Nc2cccc3c2O[C@H](CN(C)C(=O)Nc2ccc4c(c2)OCO4)[C@@H](C)CN([C@H](C)CO)C3=O)cc1	2
CSCC[C@H](NC(=O)c1cccc(S(=O)(=O)N2CCN(C)CC2)c1)c1nc2ccccc2[nH]1	-1
Cc1cc(C)c2nc(NC(=O)C3CSC4(C)CCC(=O)N34)sc2c1 (stereo not drawn)	-3
COc1ccc(C2CC(c3ccccc3)=NN2C(=O)COC(=O)c2cccc(O)c2)cc1 (stereo not drawn)	3
CN(C)CCN1C(=O)c2ccccc2C1=O	3
SMILES	Mtb betalactam
NC(=O)c1ccsc1NC(=O)COC(=O)c1ccccn1	6
COc1ccc(CCC(=O)OCC(=O)NCc2ccccc2)cc1	-11
Cc1cc(C)c(C)c(S(=O)(=O)N2CCC(C(=O)NC3=NCCS3)CC2)c1C	-2
O=C(c1ccncc1)N1CCN(CCc2ccccc2)CC1	-2
O=C(O)C1CC=CCC1C(=O)NCc1ccc(Cl)c(Cl)c1 (stereo not drawn)	-6
CN(C(=O)CSc1nc2ccccc2[nH]1)C1CCS(=O)(=O)C1 (stereo not drawn)	-5
Cc1noc(C)c1C(=O)NCC(=O)Nc1ccccc1Br	-6
COC(=O)c1ccc(NC(=O)COC(=O)CCC2CCCC2)cc1	2
O=C(C[C@@H]1C/C=C\CCCC(=O)OC[C@@H]2CCCN2C1=O)N[C@H](CO)Cc1ccccc1	7
O=C(CCCCC(=O)NCCc1ccccc1)NCCc1ccccc1	4
COc1ccc(C(=O)NNC(=O)c2cccs2)cc1S(=O)(=O)N1CCOCC1	-6
Cc1cccc(/C=N/NC(=O)c2c(-c3ccccc3)noc2C)c1O	3
CN(CC(=O)Nc1cccc(C(F)(F)F)c1)C1=NS(=O)(=O)c2ccccc21	-4
NC(N)=Nc1ccc2[nH]c3c(c2c1)C[C@@]1(O)[C@H]2Cc4ccc(O)c5c4[C@@]1(CCN2CC1CC1)C3O5 (stereo partly drawn)	2
Cc1csc(SCC(=O)Nc2ccc(F)cc2Cl)n1	-2
Cc1ccc(S(=O)(=O)N(C)c2ccc(OCC(=O)Nc3ccc(C(=O)N(C)C)cc3)cc2)cc1C	4
CC(C)(C)OC(=O)NCc1ccc(CNC(=O)c2nc[nH]c2C(=O)N2CCN(C(=O)OC(C)(C)C)CC2)cc1	4
COc1ccc(CNC(=O)COC(=O)c2ccc(Br)o2)cc1	0
Cc1ccc(C)c(NC(=O)Cc2nc(CNCC(C)C)cs2)c1	-2
Cc1cccc(OCC(=O)N(Cc2ccccc2)c2c(N)n(Cc3ccccc3)c(=O)[nH]c2=O)c1	-6
Cc1ccnc(Nc2nc(-c3ccc(Cl)cc3)cs2)c1	-12
O=C(CCl)N1CCN(S(=O)(=O)c2ccc3c(c2)CCC3)CC1	99
CCOc1ccc2nc(NC(=O)C3CSC4(C)CCC(=O)N34)sc2c1 (stereo not drawn)	-9
COc1ccc(/C=C/C(=O)OCC(=O)N2CCCC2)c(OC)c1	-10
CC(NC(=O)CSc1nnc2n1CCCCC2)c1ccccc1Cl (stereo not drawn)	-3
SMILES	Mtb betalactam
Cc1ccc(C(=O)N2CCN(c3ncccn3)CC2)c(C)c1	-15
NS(=O)(=O)c1cccc(NC(=O)c2cccc(N3C(=O)c4ccccc4C3=O)c2)c1	0
CCN1CCN(c2ccccc2NC(=O)C(C)Oc2ccc(C(C)=O)cc2)CC1 (stereo not drawn)	-6
Cc1nnc(NC(=O)CCn2c(=O)oc3ccccc32)s1	-6
O=C(O)c1ccc(NS(=O)(=O)c2cc(Cl)sc2Cl)cc1	8
CCN(CC)C(=O)[C@H]1CC(CC(=O)NCCCN(C)C)C(=O)N2CCc3c([nH]c4ccccc34)[C@]12C (stereo partly drawn)	-4
CCCN(CC(=O)Nc1ccccc1C)C(=O)c1cn2ccccc2n1	-6
O=C(C[n+]1ccccc1)N/N=C/c1ccc(Br)cc1	-4
CC(C)(C)c1ccc(OCCC(=O)OCC(=O)NC2CC2)cc1	-7
COc1ccc(C(=O)N[C@H](C(=O)NCCc2ccc3c(c2)OCCO3)C(C)C)cc1	-4
CC(=O)c1ccc(NC(=O)COC(=O)C2CC3C=CC2C3)cc1 (stereo not drawn)	-4
COc1c(-c2ccccc2)oc2c(ccc3occc32)c1=O	3
O=C(CNC(=O)c1n[nH]c2ccccc12)Nc1cc(Cl)ccc1Cl	-6
COCCNC(=O)c1cc(-c2ccccc2)nn1Cc1cc(C)no1	-6
CC(=O)c1ccc(OCC(=O)NCC2(N3CCCCC3)CCCCC2)cc1	-12
CCCCCCCCn1sccc1=O	100
CCOC(=O)c1c(C)[nH]c(C)c1C(=O)COC(=O)C1CC(=O)N(CCc2ccccc2)C1 (stereo not drawn)	8
O=C(COC(=O)c1ccc(O)cc1)NC(c1ccccc1)c1ccccc1	1
